hNpr1 antagonist: blocks ANP-stimulated signaling of human Npr1 receptor; P16066; HEK293 hNpr1 GloSensor cGMP, ANP-stimulated luminescence; Potency, µM (series often up to 46.3 µM), for the others: top-dose activity change, negative = inhibition, usual class: inhibitors; 76,000 tested, 1.6% active; AID 1347048; active = well fitted inhibition curve with a large enough effect; inconclusive = small, poorly fitted or top-dose-only effect; inactive = no such curve, though single readings can be large or run the other way;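 also: nearly all actives have a fitted effect of over 60% in size; nearly all hits also lower the signal before the agonist is added; a reference antagonist and vehicle were the controls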
Target sequence (P16066 whole entry, looked up): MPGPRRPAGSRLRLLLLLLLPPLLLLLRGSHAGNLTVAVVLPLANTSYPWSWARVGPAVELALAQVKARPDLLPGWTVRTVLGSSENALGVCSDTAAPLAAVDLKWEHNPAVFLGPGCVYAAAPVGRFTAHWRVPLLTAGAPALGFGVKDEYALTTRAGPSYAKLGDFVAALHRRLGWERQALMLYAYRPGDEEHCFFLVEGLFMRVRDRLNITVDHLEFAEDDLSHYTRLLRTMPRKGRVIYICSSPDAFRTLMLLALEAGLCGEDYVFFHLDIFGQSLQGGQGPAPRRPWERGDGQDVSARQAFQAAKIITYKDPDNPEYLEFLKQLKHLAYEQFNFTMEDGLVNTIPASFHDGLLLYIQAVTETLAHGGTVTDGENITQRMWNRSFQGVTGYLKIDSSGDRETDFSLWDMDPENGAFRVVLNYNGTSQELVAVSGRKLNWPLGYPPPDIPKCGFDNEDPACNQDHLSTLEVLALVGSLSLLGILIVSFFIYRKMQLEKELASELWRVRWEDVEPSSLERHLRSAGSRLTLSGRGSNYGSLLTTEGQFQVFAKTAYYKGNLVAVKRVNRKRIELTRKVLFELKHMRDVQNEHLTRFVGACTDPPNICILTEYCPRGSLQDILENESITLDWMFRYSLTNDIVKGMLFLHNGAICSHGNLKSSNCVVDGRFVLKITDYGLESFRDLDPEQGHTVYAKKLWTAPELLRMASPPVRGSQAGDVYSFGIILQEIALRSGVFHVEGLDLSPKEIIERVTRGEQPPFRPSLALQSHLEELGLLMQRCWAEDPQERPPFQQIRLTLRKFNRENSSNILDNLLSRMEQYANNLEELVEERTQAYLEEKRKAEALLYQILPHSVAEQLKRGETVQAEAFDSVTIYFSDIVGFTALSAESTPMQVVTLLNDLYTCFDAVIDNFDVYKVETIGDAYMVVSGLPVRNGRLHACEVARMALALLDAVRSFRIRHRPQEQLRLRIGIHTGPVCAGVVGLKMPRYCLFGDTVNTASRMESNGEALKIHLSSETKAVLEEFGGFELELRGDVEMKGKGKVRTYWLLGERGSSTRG
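HEK293 cells stably expressing human Npr1 and cGMP GloSensor pGS-40F, loaded 2 h with 2% GloSensor reagent, given compound 30 min at room temperature. Luminescence read before and 20 min after 0.1 nM hNppA.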
Numbers without * were called inactive; [ ] = another dose, or the depositor's remark. % is scaled to controls: 0 for no effect and ±100 for the full control effect; potency is read from the fitted curve at half-maximal effect. Only part of the results is shown; count on the stated rates, not on these rows.

Cc1cn2nc(C(=O)N3CCCC3)cc2c(=O)[nH]1 was read as hNpr1 antagonist 10%.
For COC(=O)[C@H](NC(=O)[C@@H]1C[C@H](NC(=O)Nc2ccc(F)cc2F)CN1C(C)=O)C(C)C the results were hNpr1 antagonist -7%.
Screening CCCc1noc(CN(C)C(C(=O)O)c2ccc(OC)c(F)c2)n1 (centres undefined) returned hNpr1 antagonist 1%.
`Cc1noc(C)c1CNC(=O)[C@H]1CN(Cc2ccccc2)C[C@H]1C(=O)O` gave hNpr1 antagonist -6%.
Screening C[C@]1(CO)C2CC[C@@H](O)[C@@H](CC(=O)N3CCC[C@H]3CO)[C@]2(C)CC[C@H]1OC(=O)NC1CCCCC1 (some centres undefined) returned hNpr1 antagonist 5%.
Screening Cc1ccc(CNC(=O)c2ccc3c(c2)CN(CC2=Cc4ccccc4OC2)CCO3)cc1 returned hNpr1 antagonist inconclusive.
O=C(c1cccc(Cl)c1)N1CCC(c2nn(-c3ccc(Cl)cc3)c(=O)[nH]2)CC1 was read as hNpr1 antagonist -3%.
O=C1N[C@@H]2CCN(S(=O)(=O)c3cccc(F)c3)[C@@H]2C(=O)N1c1ccc(F)cc1 was read as hNpr1 antagonist 1%[70.6 µM].
`C=CCN1CC2(CCC1=O)CCN(C(=O)C(C)n1cc(C)cn1)CC2` (centres undefined) gave hNpr1 antagonist 3%.
Screening CN1CCN(Cc2cc(F)ccc2Cl)CC12CCNC(=O)CC2 (centres undefined) returned hNpr1 antagonist 1%.
`COc1ccc(OC)c(CNC(=O)C2(CCO)CCN(c3ncccn3)C2)c1` (centres undefined) gave hNpr1 antagonist -12%.
`O=C1CC2CCCC(C1)N2C(=O)c1cccnc1` gave hNpr1 antagonist -3%[70.6 µM].
Screening COC[C@@H]1OC[C@@]2(C)C3CC[C@@H](O)[C@@H](CC(=O)NCc4cccs4)[C@]3(C)CC[C@H]2O1 (some centres undefined) returned hNpr1 antagonist 0%.
Screening COc1cccc(CC(=O)N2CCCN(C(=O)C3CC3)c3ccccc32)c1 returned hNpr1 antagonist 1%.
`CCN(CC)C(=O)CC[C@@H]1CNC(=O)[C@@H]2C[C@H](NC(=O)c3ccc(N(C)C)cc3)CN12` gave hNpr1 antagonist 4%[70.6 µM].
O=C(Cn1nc2n(c1=O)CCCC2)NCCCc1ccccc1 was read as hNpr1 antagonist 7%.
Screening COc1ccccc1OCC(=O)NC1CC(=O)N(Cc2ccccc2Cl)C1 (centres undefined) returned hNpr1 antagonist 0%.
`CCc1cccc2c(C(CC(=O)N3CCCCC3)c3cccc(C)c3)c[nH]c12` (centres undefined) gave hNpr1 antagonist -6%.
N[S+](=O)([O-])c1ccc2c(c1)OCCN(CCc1ccccc1)C2 was read as hNpr1 antagonist 1%[70.6 µM].
For O=C1CC(c2noc(-c3ccc4c(c3)OCO4)n2)CN1c1ccc(Cl)cc1 (centres undefined) the results were hNpr1 antagonist 12%.
For CCCn1c(C)c(CC(=O)NCCn2cccn2)c2c1CC(C)(C)CC2=O the results were hNpr1 antagonist 3%.
Screening Cc1nn(C)cc1CN(C)C(=O)Cn1nc2n(c1=O)CCC(N)CC2 (centres undefined) returned hNpr1 antagonist 3%.
CCCN1CCN(C(=O)c2cc(NC(=O)C3CCC3)cc3nc(C)ccc23)CC1 was read as hNpr1 antagonist -2%.
For COc1ccc(-c2nn(-c3ccccc3)cc2CN2CCC(C#N)CC2)c(F)c1 the results were hNpr1 antagonist 3%.

A draw from above in order of count of non-hydrogen atoms, high to low.
Screening COC[C@@H]1OC[C@@]2(C)C3CC[C@@H](O)[C@@H](CC(=O)NCc4cccs4)[C@]3(C)CC[C@H]2O1 (some centres undefined) returned hNpr1 antagonist 0%.
Screening COc1ccccc1OCC(=O)NC1CC(=O)N(Cc2ccccc2Cl)C1 (centres undefined) returned hNpr1 antagonist 0%.
Screening Cc1nn(C)cc1CN(C)C(=O)Cn1nc2n(c1=O)CCC(N)CC2 (centres undefined) returned hNpr1 antagonist 3%.
`O=C1CC2CCCC(C1)N2C(=O)c1cccnc1` gave hNpr1 antagonist -3%[70.6 µM].

Carrying on:
Screening NS(=O)(=O)c1ccc(C(=O)NCc2cnn(Cc3ccccc3)c2)cc1 returned hNpr1 antagonist -2%.
Screening Cc1nc(-c2c3n(c(=O)n(Cc4ccc(Br)cc4)c2=O)CCCCC3)no1 returned hNpr1 antagonist -2%.
Screening Cc1cn2nc(C(=O)N3CCN(c4ccccc4)CC3)cc2c(N(C)Cc2ccccc2)n1 returned hNpr1 antagonist 0%.
For O=C(NC1CC1)[C@@H]1C[C@H](Oc2cccnc2)CN1C(=O)CCc1ccccc1 the results were hNpr1 antagonist 0%.
Screening O=C(CCCc1ccccc1)NCC(=O)N1CCCCCNC(=O)CC1c1ccccc1 (centres undefined) returned hNpr1 antagonist 0%.
For Cc1ccc(-c2ccc3nnc(CNC(=O)c4cc(F)ccc4Cl)n3n2)cc1 the results were hNpr1 antagonist 0%.
For O=C(CCC(F)(F)F)N1CCc2nc(-c3ccc(Cl)cc3)[nH]c2C1 the results were hNpr1 antagonist -9%.
Screening COc1cccc(N2CCN(C(=O)C3(c4ccc(NC(C)=O)cc4)CCC3)CC2)c1 returned hNpr1 antagonist 3%.
For O=C(NCC1CC1)c1nc2c(o1)CCN(Cc1cccs1)CC2 the results were hNpr1 antagonist -14%[70.6 µM].
`CC[C@H]1CN(S(=O)(=O)c2ccccc2)CC[C@H]1CC(=O)NCCN1CCOCC1` gave hNpr1 antagonist 4%[70.6 µM].
C=CCCC(CN1CCCOCC1)Oc1ccc(C#N)cn1 (centres undefined) was read as hNpr1 antagonist 1%.
`O=C(NCc1ccccc1)c1cn(C2CN(C(=O)C3CCOC3)C2)nn1` (centres undefined) gave hNpr1 antagonist 8%.

In the list so far, these have a cyano group:
For COc1ccc(-c2nn(-c3ccccc3)cc2CN2CCC(C#N)CC2)c(F)c1 the results were hNpr1 antagonist 3%.
C=CCCC(CN1CCCOCC1)Oc1ccc(C#N)cn1 (centres undefined) was read as hNpr1 antagonist 1%.

(more compounds)
For O=C(NCc1cccc(F)c1)c1ccc2c(c1)CC(=O)N2Cc1ccccc1 the results were hNpr1 antagonist -1%.
`CC1CCC2(CC1)NC(=O)N(CC(=O)Nc1ccccc1)C2=O` (centres undefined) gave hNpr1 antagonist 11%.
`O=C(Nc1cccc(OC(F)(F)F)c1)[C@@H]1COCC(=O)N1Cc1ccc(F)cc1` gave hNpr1 antagonist -3%.
For CC(C)c1noc(C2CCCN(C(=O)Nc3ccccc3F)CCC(=O)NCC2)n1 (centres undefined) the results were hNpr1 antagonist 6%.
Screening COc1ccc(OCC2(C)COc3ccc(C(=O)NCc4ccco4)cc3N2)cc1 (centres undefined) returned hNpr1 antagonist inconclusive.
CO[C@H]1C[C@@H](O)C12CCN(C(=O)Cn1cc(C)c(=O)[nH]c1=O)CC2 was read as hNpr1 antagonist -2%.
C[C@@H](NC(=O)C1=C[C@@H](NC(=O)Nc2ccc(OC(F)(F)F)cc2)[C@@H](O)[C@H](O)C1)C(N)=O was read as hNpr1 antagonist 1%.
For O=C1CCC2(CCCO2)CCN1Cc1cccc(OC(F)(F)F)c1 (centres undefined) the results were hNpr1 antagonist 1%.
OC1CCOC2(CCN(Cc3ccc[nH]3)CC2)C1 (centres undefined) was read as hNpr1 antagonist -1%.
For O=C1NCCCCCCN(C(=O)C2CCC2)[C@H]2CCC[C@@H]12 the results were hNpr1 antagonist 3%.
`C[C@@H]1CN(C(=O)c2cccnc2SCCc2ccccc2)CC[C@]1(C)O` gave hNpr1 antagonist 11%.
For Cc1nn(C)c(C)c1-c1cc(C(=O)N2C[C@@H](N(C)C)[C@H](C(C)C)C2)n(C)n1 the results were hNpr1 antagonist 0%.
Screening COc1ccc(-c2noc(C(=O)O)c2[C@@H](C)NC(=O)c2cnccn2)cc1 returned hNpr1 antagonist 6%[70.6 µM].
Screening CCN(CC)Cc1nc(C2(O)CCN(Cc3ccc(OC)cc3)CC2)cs1 returned hNpr1 antagonist -3%[70.6 µM].
`CN(CC1CCOC1)C(=O)NCc1cccc(F)c1` (centres undefined) gave hNpr1 antagonist -1%.
Screening O=C(CCc1nc2ccccc2s1)N1CCCC1c1nc(CCOCC2CC2)no1 (centres undefined) returned hNpr1 antagonist -2%.
Screening CNC(=O)c1noc([C@@H]2CC(F)(F)CN2C(=O)c2cccc(C)c2)n1 returned hNpr1 antagonist -3%.
For Cc1noc(C)c1-c1cc2cc(C(C)C)oc2c(N2CCN(C)C(=O)C2)n1 the results were hNpr1 antagonist 1%[70.6 µM].
For COc1ccccc1NC(=O)c1c(C)oc2c1CN(Cc1ccc(F)cc1)CC2 the results were hNpr1 antagonist -1%.
`Clc1cc(NCC2CCCCCC2)n2nccc2n1` gave hNpr1 antagonist -28%[70.6 µM].
CCOc1ccc(C(=O)N2CCC(c3nnc(Cn4cccn4)n3C)CC2)o1 was read as hNpr1 antagonist 2%.
`Cc1cccc(NC(=O)N2CCc3c(C(=O)N4CCN(C)CC4)cccc32)c1` gave hNpr1 antagonist -25%.
O=C(C#Cc1ccccc1)NC1CCCc2c1cnn2-c1ccc(F)cc1F (centres undefined) was read as hNpr1 antagonist inconclusive.
CCN1c2cc(C(=O)Nc3ccc(C)c(F)c3)ccc2C(=O)N2CCCC21 (centres undefined) was read as hNpr1 antagonist 5%.

Reprinted at random: five compounds from above.
`CN(CC1CCOC1)C(=O)NCc1cccc(F)c1` (centres undefined) gave hNpr1 antagonist -1%.
For COc1ccccc1NC(=O)c1c(C)oc2c1CN(Cc1ccc(F)cc1)CC2 the results were hNpr1 antagonist -1%.
Screening O=C(CCc1nc2ccccc2s1)N1CCCC1c1nc(CCOCC2CC2)no1 (centres undefined) returned hNpr1 antagonist -2%.
Screening CCN(CC)Cc1nc(C2(O)CCN(Cc3ccc(OC)cc3)CC2)cs1 returned hNpr1 antagonist -3%[70.6 µM].
CCN1c2cc(C(=O)Nc3ccc(C)c(F)c3)ccc2C(=O)N2CCCC21 (centres undefined) was read as hNpr1 antagonist 5%.

The results go on:
Cc1ccc(C)c(C(=O)NC2CCN(c3cc(-c4ccc(F)cc4)[nH]n3)C2)c1 (centres undefined) was read as hNpr1 antagonist -15%.
Screening CNC(=O)[C@@H](c1ccccc1)N1CCC[C@H]1C(=O)N1CCC[C@@H]1COC returned hNpr1 antagonist -1%[70.6 µM].
For COc1cc(OC)cc(C(=O)N2CCC(Cc3nc(-c4cnccn4)no3)CC2)c1 the results were hNpr1 antagonist 9%.
Screening COc1ccc2ccc(OCc3nc(C(=O)N4CCC(NC(C)=O)CC4)co3)cc2c1 returned hNpr1 antagonist -23%.
Screening Cc1ccc(CN2CC[C@@H]3[C@H]2C(=O)NC[C@H](CCC(=O)NCc2ccc(F)cc2)N3C)cc1 returned hNpr1 antagonist 3%.
Screening CCOc1ccc(C(=O)N2CCC3(CCCN(C)C3=O)C2)o1 (centres undefined) returned hNpr1 antagonist -4%.
CNC(=O)[C@@H]1CN(C(=O)c2coc(C)n2)C[C@H]1COC was read as hNpr1 antagonist 6%.
`CCCN(CCC)C(=O)CN1C(=O)NC2(CCC(C)CC2)C1=O` (centres undefined) gave hNpr1 antagonist 0%.
Screening O=C(NCC1CCOCC1)C1=NO[C@@H]2CN(CCc3ccccc3)C[C@H]12 returned hNpr1 antagonist -1%[70.6 µM].
Screening COc1nc2c(cc1CNC(=O)C1CCCC1)C(=O)N(CCc1ccccn1)C2 returned hNpr1 antagonist 4%.
For CN(CC1CCOCC1)S(=O)(=O)c1ccccc1 the results were hNpr1 antagonist 4%.
For c1ccc(-c2noc(-c3ccn4c(CN5CCN(c6ccccc6)CC5)nnc4c3)n2)cc1 the results were hNpr1 antagonist 2%.
`O=C(COc1ccccc1)N[C@H]1CO[C@H]2[C@@H]1OC[C@@H]2Nc1nccc(-c2cccs2)n1` gave hNpr1 antagonist inconclusive.
For COc1cccc(-c2nc3cnccn3c2NCCC(=O)N2CCc3ccccc32)c1 the results were hNpr1 antagonist 1%.
For O=C1N(C2CCOCC2)C[C@H]2CN(Cc3cccc(Cl)c3)CCN12 the results were hNpr1 antagonist -4%[70.6 µM].
CC(C)NC(=O)N1CCCC1c1nc(CCOc2ccc(F)cc2)no1 (centres undefined) was read as hNpr1 antagonist 1%.
`COC(=O)N1CCC2(CC1)Cc1ccccc1NC2=O` gave hNpr1 antagonist -8%[70.6 µM].
For CCN1c2cc(C(=O)NCc3cccs3)ccc2C(=O)N2CCCCCC21 (centres undefined) the results were hNpr1 antagonist -13%.
For O=C(O)C[C@@H]1CCN(C(=O)c2cccs2)C[C@@H]1CCN1CCN(c2ccccn2)CC1 the results were hNpr1 antagonist 1%.
`Cc1cc(C(F)(F)F)nn1CCNC(=O)[C@H]1CCC[C@H](O)C1` gave hNpr1 antagonist 2%.
CCCn1cc(CNC(=O)c2cc3c(s2)CCC(C)C3)cn1 (centres undefined) was read as hNpr1 antagonist inconclusive.
CCNC(=O)[C@@H]1C[C@H](n2cc(-c3ccc(CN4CCOCC4)cc3)nn2)CN1 was read as hNpr1 antagonist 5%.
For COc1ccc(S(=O)(=O)Nc2ccc(C)n(CC(=O)N(C)C)c2=O)cc1 the results were hNpr1 antagonist 2%.
`COc1ccc(CNC(=O)CN2C(=O)C(c3ccccc3)=NC23CCCC3)cc1OC` gave hNpr1 antagonist -2%.
`COc1ccc(-c2nc(CN3CCC(F)(F)CC3)c(C)o2)c(OC)c1C` gave hNpr1 antagonist 2%.
CCS(=O)(=O)N(C1CC1)C1CCOC2(CCN(C(=O)c3cccc(F)c3)CC2)C1 (centres undefined) was read as hNpr1 antagonist -16%.

From PubChem BioAssay
